High-throughput results: PubChem BioAssay, several laboratories
UUG fidelity: modulators of start codon recognition fidelity in yeast | S. cerevisiae UUG-firefly luciferase reporter, luminescence/redox ratio | activity score, % at 18.7 µM | actives 0.13% (n = 350,000) | AID 602363;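 active = replicate mean at a twofold rise or more, about +100% in these data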;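 also: firefly luciferase made from a UUG start codon reports start codon fidelity; reporter light over untreated wells divided by growth signal over untreated wells; some hits fall short of that in this replicate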
Env fusion inh: HIV envelope-mediated fusion inhibition; actives 1.1% (n = 360,000); HeLa-JRFL Env/CEM21 cell fusion, luciferase; AID 651610; inhibition, % at 12.3 µM;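 active = mean replicate inhibition score of at least 50 and every replicate individually at or above 50; inconclusive = only one of the two criteria met; inactive = mean below 50 and not all replicates reaching 50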;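 also: 0% = plate neutral controls and 100% = maraviroc near 300 nM; one replicate is shown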
eIF4H inh: inhibitors of RNA binding by human eIF4H; Q15056; actives 0.94% (n = 290,000); eIF4H fluorescence polarization binding assay; AID 2012; inhibition, % at 35 µM;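 active = 50% or more with normal probe brightness, or confirmed in later tests; inconclusive = above 50% with abnormal brightness, or retests that disagree; inactive = below 50% or failed in later tests; about a fifth of its hits are not listed in these tables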;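 also: calls also rest on retests at 20 µM and on dose response follow-up; 0% = protein and probe with vehicle and 100% = probe without protein; strong numbers were not always called active; many hits fall short of the cut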
CSC inhib: blocks cancer stem cells. AID 2717. actives 1.1% (n = 300,000). cancer stem cell-like cells viability, luminescence. inhibition, % at 7.5 µM;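 active = mean at 75% or more and at least half the replicates too; inconclusive = mean and replicates disagree; tested in HMLE shEcad cells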;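 also: 0% = median of negative and 100% = median of positive control wells; the first replicate is given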
PABP polyA inh: PABP-poly(A) binding inhibition; P11940; PABP-poly(A) RNA binding, fluorescence polarization; inhibition, % at 35 µM; actives 1% (n = 290,000);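 active = 50% or more with normal probe brightness, or confirmed in later tests; inconclusive = above 50% with abnormal brightness, or retests that disagree; inactive = below 50% or failed in later tests; about a fifth of its hits are not listed in these tables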;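 also: calls also rest on retests at 20 µM and on dose response follow-up; controls were probe without protein and protein plus probe with vehicle; some compounds called inactive have numbers as strong as hits; many hits fall short of the cut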
Target sequence (P11940 whole entry, looked up): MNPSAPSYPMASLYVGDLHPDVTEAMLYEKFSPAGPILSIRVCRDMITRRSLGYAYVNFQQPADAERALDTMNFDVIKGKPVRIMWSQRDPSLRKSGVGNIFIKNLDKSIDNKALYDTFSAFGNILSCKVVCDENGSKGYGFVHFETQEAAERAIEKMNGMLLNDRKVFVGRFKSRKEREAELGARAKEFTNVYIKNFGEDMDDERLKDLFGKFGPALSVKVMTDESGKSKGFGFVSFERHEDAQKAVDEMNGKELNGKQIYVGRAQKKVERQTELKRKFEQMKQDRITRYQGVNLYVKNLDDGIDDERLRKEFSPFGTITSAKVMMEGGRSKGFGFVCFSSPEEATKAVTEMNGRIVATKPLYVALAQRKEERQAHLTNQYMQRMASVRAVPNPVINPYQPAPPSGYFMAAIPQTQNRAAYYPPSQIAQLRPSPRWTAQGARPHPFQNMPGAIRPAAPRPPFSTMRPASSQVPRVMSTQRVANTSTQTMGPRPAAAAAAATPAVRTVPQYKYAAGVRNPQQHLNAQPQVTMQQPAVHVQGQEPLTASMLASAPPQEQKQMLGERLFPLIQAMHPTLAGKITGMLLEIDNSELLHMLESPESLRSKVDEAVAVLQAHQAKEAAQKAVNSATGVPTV
Rce1 inhib: inhibitors of yeast Ras-converting enzyme; AID 2563; actives 0.27% (n = 290,000); calls only; yeast membranes, quenched prenylated peptide cleavage fluorescence;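 active = fall in fluorescence gain of 50% or more versus controls, with final raw signal at or below 3038400; inconclusive = same 50% fall but final raw signal above 3038400; inactive = fall in fluorescence gain under 50%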;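 also: plate controls were neutral control wells for no effect and wells lacking membranes for full effect; tested at 10 µM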
Target sequence (Q03530 whole entry, looked up): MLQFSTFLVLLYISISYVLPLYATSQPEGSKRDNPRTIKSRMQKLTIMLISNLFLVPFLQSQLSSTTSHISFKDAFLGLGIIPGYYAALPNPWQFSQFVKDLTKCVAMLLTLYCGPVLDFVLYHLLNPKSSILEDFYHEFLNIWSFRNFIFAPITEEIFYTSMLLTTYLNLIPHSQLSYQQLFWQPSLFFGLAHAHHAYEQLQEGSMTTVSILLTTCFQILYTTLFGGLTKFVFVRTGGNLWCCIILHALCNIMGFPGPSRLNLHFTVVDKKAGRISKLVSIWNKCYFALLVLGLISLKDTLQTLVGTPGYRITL
MT1-MMP act inh: blocks activation of human MT1-MMP; HT1080 RFP-PRO-GFP cells, GFP/RFP ratio fluorescence, overnight; percent of plate control window, DMSO zero; actives 0.061% (n = 360,000); GFP/RFP ratio change, % at 20 µM;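 active = GFP/RFP ratio change of at least 30% with cell ATP level not reduced by more than half and red fluorescence within 50% of control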; also: strong numbers were not always called active
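Assay system – RFP-PRO-GFP reporter HT1080 cells · Compound dosing – single dose of 20 µM compound, 1% DMSO final · Incubation – overnight compound exposure at 37 °C · Measure – GFP/RFP fluorescence ratio · Benchmarks – DMSO wells and RFP-L50D-GFP cells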
eIF4H inh retest: second read-out of eIF4H inh, no call of its own (marks repeat the call); inhibition, %; compound at 20 µM; confirmation average;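 mean of two retest wells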
PABP polyA inh retest: recorded beside PABP polyA inh, whose call it bears; inhibition, %; compound at 20 µM; confirmation repeats;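 mean of two retest wells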
MT1-MMP act inh RFP: also measured in MT1-MMP act inh; calls as there; RFP signal change, %; measured here: RFP expression control read;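 0 = vehicle wells; hits needed this value within 50% of zero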
An asterisk follows results filed as active; i = inactive; ? = inconclusive; nt = not tested or not shown. This is a subset; count on the stated rates, not on these rows.

SMILES | UUG fidelity | Env fusion inh | eIF4H inh | CSC inhib | PABP polyA inh | Rce1 inhib | MT1-MMP act inh | MT1-MMP act inh RFP | others
CCCCC(CC)COC(=O)c1ccccc1C(=O)OCC(CC)CCCC (stereo not given) | -8 | -212 | nt | 21 | nt | nt | 1 | -1
COc1ccc(N2C(=O)NC(=O)C(CCc3ccncc3)(CCc3ccncc3)C2=O)cc1 | -2 | -8 | -2 | -2 | -14 | i | -3 | -2
COc1ccc([N+](=O)[O-])cc1N=Cc1c(O)n(CCc2ccccc2)c(=O)n(C(C)C)c1=O | nt | 6 | ? | -4 | 5 | i | -69 | -5
C/C(=N\N=C(N)N)c1ccccc1 | -9 | 19 | -1 | -6 | -4 | i | -1 | 1
COc1ccc(NC(=O)c2cn(CCC#N)nc2-c2ccc(OC)c(OC)c2)cc1 | 0 | 12 | 9 | -2 | -12 | i | 8 | 2
C[n+]1c(-c2ccccc2)cc(-c2ccc(Cl)cc2)cc1-c1ccccc1 | nt | 12 | -1 | 4 | -2 | i | -7 | -17
O=C(Nc1ccc2ccccc2c1)c1nn(C23CC4CC(CC(C4)C2)C3)cc1Br | -8 | 10 | -3 | -10 | -7 | i | -9 | -8
c1ccc2c(c1)[IH]c1ccccc1-2 | 151* | -10 | nt | nt | nt | nt | 32 | -28
COc1cccc(NC(=O)CN2CC(c3ccccc3)CC2=O)c1 (stereo not given) | 2 | 16 | -5 | -32 | 3 | i | 0 | 4
CCCCCCC(=O)N/N=C/c1c(O)n(CCCC)c(=S)[nH]c1=O | -5 | -10 | 4 | 12 | -24 | i | 4 | 3
Cc1cccc(-n2c(O)c(C)c(=O)[nH]c2=S)c1 | nt | -2 | 7 | nt | 6 | nt | -2 | 3
COC(=O)C1=C(c2ccc(F)cc2OCc2ccccc2)C[C@@H]2CC[C@H]1N2C(=O)NCc1ccccc1Cl | -14 | 4 | nt | 23 | nt | nt | 0 | -7
O=C1CC(=O)N(c2cccc(Cl)c2)C(=O)N1 | -3 | -40 | ? | -7 | ? | i | -10 | 6
CC(=NCC1CCCO1)c1c(O)n(-c2ccccc2)c(=O)[nH]c1=O (stereo not given) | 5 | nt | -5 | -43 | -3 | i | 4 | 6
NC(=S)/N=C/c1c(O)[nH]c(=O)[nH]c1=O | nt | -10 | 56 | -5 | 9 | i | -4 | -3 | eIF4H inh retest=9;PABP polyA inh retest=19
c1ccc(-c2nc(N3CCOCC3)s[n+]2-c2ccccc2)cc1 | -14 | -5 | 2 | -3 | -1 | i | 3 | 4
CN(C)C1CCc2[nH]c3c(F)cc(F)cc3c2C1 (stereo not given) | -11 | 19 | nt | nt | nt | nt | 2 | 3
Cc1cccc(N2C(=O)NC(=O)/C(=C/c3ccc(-c4ccc(C(=O)O)c(Cl)c4)o3)C2=O)c1 | nt | nt | 60 | -11 | -10 | i | nt | nt | eIF4H inh retest=-1;PABP polyA inh retest=4
NC(=O)c1ccsc1NC(=O)COC(=O)Cc1ccccc1 | -4 | nt | nt | 6 | nt | nt | 4 | 2
COc1ccc(-n2c(-c3ccc(C)cc3)nc3ccccc3c2=O)cc1 | nt | -8 | 2 | -1 | -6 | i | 0 | -3
COc1cc(C(c2c(C)[nH]n(-c3ccccc3)c2=O)c2c(C)[nH]n(-c3ccccc3)c2=O)cc(OC)c1OC | -18 | nt | -2 | -10 | 4 | i | 11 | 2
N#Cc1ccccc1Cn1cc(C(=O)C2CC2)c2ccccc21 | -15 | -3 | 2 | 3 | -7 | i | 2 | 0
Cc1ccc(OCC(=O)N2CCN(Cc3ccc4c(c3)OCO4)CC2)cc1 | nt | 12 | 5 | -6 | 10 | i | 1 | 1
O=C(O)C1Cc2ccccc2N2CCCC12 (stereo not given) | -10 | -5 | ? | 1 | ? | i | -4 | 5
NS(=O)(=O)c1ccc(N=Cc2c(O)n(C3CCCCC3)c(=O)n(C3CCCCC3)c2=O)cc1 | -7 | 35 | ? | 90* | ? | i | -377 | -9
(more compounds)
SMILES | UUG fidelity | Env fusion inh | eIF4H inh | CSC inhib | PABP polyA inh | Rce1 inhib | MT1-MMP act inh | MT1-MMP act inh RFP | others
CC(C)(C)C(=O)O[C@H]1CC[C@@]2(C)C(=CC(=O)C3C2CC[C@]2(C)C(=O)[C@H](O)CC32)C1 (stereo not given in full) | 16 | -1 | nt | 0 | nt | nt | 6 | 0
CCN1CC=C(c2c[nH]c3ccccc23)CC1 | 4 | nt | -2 | nt | -4 | i | -6 | -12
CC1CCCN(C(=O)CCl)C1 (stereo not given) | -15 | 8 | -4 | 5 | -1 | nt | 0 | 3
COc1ccc(C2=NCC(=O)N(CC(=O)NCc3ccco3)c3sc4c(c32)CCCC4)cc1OC | -11 | -17 | -8 | -10 | -5 | i | -1 | 3
CCOc1ccc(-n2c(O)c(C=Nc3ccc(N4CCOCC4)cc3)c(=O)[nH]c2=O)cc1 | nt | nt | -2 | 0 | 8 | i | 5 | 5
CC1C(c2cccs2)=[N+]([O-])C(C)(C(=O)c2ccc(Cl)cc2)N1O (stereo not given) | 3 | -46 | nt | 9 | nt | nt | -6 | 2
O=c1[nH]c(=S)n(-c2ccc(Br)cc2)c(O)c1C=Nc1ccc(N2CCOCC2)cc1 | -15 | -16 | 14 | -1 | -7 | i | -22 | 4
CCOC(=O)CC(SP1(=S)OCC2(CC=CCC2)CO1)C(=O)OCC (stereo not given) | -3 | -2 | nt | nt | nt | nt | 0 | 1
Cc1cccc(CNCCc2c[nH]c3ccccc23)c1 | -5 | 13 | 14 | 17 | 2 | i | -3 | 0
CCc1ccc(N2C(=O)CC(=O)NC2=O)cc1 | -10 | -13 | -1 | 0 | -7 | i | -14 | 5
O=c1cccc2n1C[C@@H]1C[C@@H]2CN(CC(O)c2ccc([N+](=O)[O-])cc2)C1 (stereo not given in full) | -17 | -2 | -3 | 4 | 7 | i | 0 | 1
Cc1cc(C(=O)OCC(=O)Nc2ccc(F)cc2)c(C)n1C1CC1 | -12 | 1 | nt | nt | nt | nt | 1 | 1
O=C1CN=C(c2ccc(Br)cc2)c2oc3ccccc3c2N1 | -22 | -169 | -3 | -5 | -3 | i | 4 | 0
COCC(=O)N1Cc2ccccc2-n2nncc2C1 | -5 | -1 | nt | nt | nt | nt | 0 | 8
Nc1c(C(=O)NCCCc2ccccc2)c2nc3ccccc3nc2n1Cc1cccs1 | -7 | 22 | 1 | 43 | 6 | i | -11 | -4
Cc1c(C(c2ccccc2Cl)c2c(O)c3ccccc3oc2=O)c(=O)n(-c2ccccc2)n1C (stereo not given) | nt | 17 | -5 | 6 | -6 | i | -2 | 9
FC(F)(F)c1cccc(-n2nnnc2C2(N3CCOCC3)CCCCC2)c1 | -1 | nt | -14 | 13 | -3 | i | -6 | -4
S=C1NCCN1 | -7 | 20 | -8 | -19 | -2 | i | -1 | 1
Nc1cccc(N=Cc2c(O)n(Cc3ccc(F)cc3)c(=O)[nH]c2=O)c1 | -9 | nt | 54 | 27 | -2 | i | -10 | -1 | eIF4H inh retest=7;PABP polyA inh retest=6
C/C=C1/CC(C)C(C)(O)C(=O)OCC2CCN3CCC(OC1=O)C23 (stereo not given) | nt | 10 | 19 | 2 | -3 | i | -2 | 6
CN(C)S(=O)(=O)c1cccc(C(=O)N2CCC(C(=O)O)(c3ccccc3)CC2)c1 | -3 | 5 | -3 | -5 | 5 | i | 2 | 4
COc1cc(/C=N/NC(=O)CN2CC(c3ccccc3)CC2=O)ccc1OC(=O)N(C)C (stereo not given) | 8 | -89 | -1 | -6 | -8 | i | -1 | 1
Cc1nn(Cc2ccccc2)c(C)c1C(=O)NCc1ccccc1 | -3 | -8 | -5 | 0 | 0 | nt | 4 | 1
O=P(c1ccccc1)(c1ccccc1)N1CCCCC1 | 14 | nt | -4 | -4 | -2 | i | 6 | 14
CCOc1ccc(C2SCC(=O)Nc3c2c(=O)[nH]n3C2CCCCCC2)cc1 (stereo not given) | -16 | -76 | -3 | -1 | -5 | i | -3 | -7
Additional compounds follow:
SMILES | UUG fidelity | Env fusion inh | eIF4H inh | CSC inhib | PABP polyA inh | Rce1 inhib | MT1-MMP act inh | MT1-MMP act inh RFP | others
C/C=C1/CN2C3CC1C(CO)(C(=O)OC)C2Cc1c3n(C)c2ccccc12 (stereo not given) | -15 | nt | 8 | -11 | 19 | i | 0 | 5
O=C(NC(=S)N1CC1)c1ccccc1 | -9 | -4 | nt | nt | nt | nt | 1 | 7
NC12CN3CN(CN(C3)C1)C2 (tested in a mixture with another compound) | -19 | nt | -4 | -5 | -7 | i | -2 | 4
COC(=O)C1=C(c2cc3ccccc3s2)C[C@@H]2CC[C@H]1N2C(=O)N1CCCC1 | 27 | 41 | nt | 3 | nt | i | -5 | -18
Cc1cc(OCC(=O)N2C[C@H]3C[C@@H](C2)c2cccc(=O)n2C3)c2c(C)cc(=O)oc2c1 | -33 | nt | 1 | -4 | -15 | i | 9 | 5
COc1cccc(C(c2nnnn2-c2c(C)cccc2C)N2CCC(n3c(=O)[nH]c4ccccc43)CC2)c1OC (stereo not given) | 5 | -12 | nt | nt | nt | nt | -5 | -13
COC(=O)CC1(Cc2ccccc2)C(=O)NC(=O)NC1=O | -15 | nt | 5 | 3 | 3 | i | 1 | 6
COc1cc(OC)cc(C(=O)NC(=S)N2C[C@H]3C[C@H](C2)c2cccc(=O)n2C3)c1 | -7 | nt | 4 | -8 | -5 | i | 0 | 6
CC1CCN(C(=O)c2ccc(N3CC4CC(C3)c3cccc(=O)n3C4)c([N+](=O)[O-])c2)CC1 (stereo not given) | nt | 22 | -7 | -5 | -7 | i | 2 | 2
C[C@]12CCC3C(CCC4=CC(O)CC[C@@]43/C=N/O)C1(O)CCC2C1=CC(=O)OC1 (stereo not given in full) | nt | 93* | -2 | 115* | 1 | i | -46 | -37
Nc1ccc(-c2ccc(N)cc2)cc1 | -16 | 13 | nt | nt | nt | nt | 4 | 5
COc1ccccc1N1CCN(C2CCCN(C(=O)COc3ccccc3Cl)C2)CC1 (stereo not given) | 15 | 11 | -13 | nt | -1 | i | -2 | -3
CCCn1cc(CN2CCCC(C(=O)c3cccc(OC)c3)C2)c(C)n1 (stereo not given) | nt | 5 | -3 | -4 | -5 | i | 3 | 1
CCC(=NCc1ccco1)c1c(O)n(-c2ccc(OC)cc2)c(=O)[nH]c1=O | -10 | -36 | 8 | -25 | 1 | i | -11 | -8
COC(=O)N(c1ccc(OC)cc1)P1(=S)OCCC(C)O1 (stereo not given) | -17 | nt | -1 | -4 | -11 | i | 7 | -1
C=CCn1c(O)c(C(C)=NCCN2CCN(C(=S)NC)CC2)c(=O)[nH]c1=O | -20 | 5 | 0 | -8 | -9 | i | -1 | 5
O=c1c2ccccc2nc(-c2ccccc2)n1-c1ccccn1 | nt | -19 | -7 | 4 | -5 | i | -3 | -2
O=C(N/N=C/c1c(O)n(-c2cccc3ccccc23)c(=O)[nH]c1=O)c1ccncc1 | -32 | -16 | 43 | -13 | 16 | i | -38 | 6
Oc1c(Br)cc(Br)cc1CN1CCN(Cc2ccccc2)CC1 | 7 | 11 | 10 | 19 | 27 | i | -1 | -2
N#CC1=C(N)Oc2c(c(=O)oc3ccccc23)C1c1ccncc1 (stereo not given) | -11 | nt | -11 | 5 | 6 | nt | 5 | 3
